Bioassay records deposited in PubChem by National Center for Advancing Translational Sciences (NCATS).
VDR inh: blocks the human vitamin D receptor; VDR-SRC2-3 peptide fluorescence polarization, 2 h; 400,000 compounds, 0.93% hits; Potency, µM, for the others: max response, negative = inhibition, most hits filed as inhibitors; P11473; AID 504847; active = well fitted inhibition curve with a large enough effect; inconclusive = small, poorly fitted or top-dose-only effect, or another doubt; inactive = no such curve, though single readings can be large or run the other way; also: series mostly up to about 120 µM
Target sequence (P11473 whole entry, looked up): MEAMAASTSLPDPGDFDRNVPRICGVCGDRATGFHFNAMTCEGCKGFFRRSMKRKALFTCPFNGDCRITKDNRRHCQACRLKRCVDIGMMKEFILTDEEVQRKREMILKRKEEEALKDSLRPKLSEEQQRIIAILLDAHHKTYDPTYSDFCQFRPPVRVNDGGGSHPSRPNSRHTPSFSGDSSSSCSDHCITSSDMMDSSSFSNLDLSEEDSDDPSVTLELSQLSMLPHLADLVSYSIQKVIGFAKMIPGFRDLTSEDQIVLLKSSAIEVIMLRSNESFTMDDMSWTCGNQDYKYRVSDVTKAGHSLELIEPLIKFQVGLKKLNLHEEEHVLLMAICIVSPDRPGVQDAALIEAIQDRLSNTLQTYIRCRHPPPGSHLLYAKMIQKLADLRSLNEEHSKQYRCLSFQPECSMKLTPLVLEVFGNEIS
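Inhibition of the VDR/SRC2-3 peptide interaction is quantified by fluorescence polarization. Compounds (23 nl, pintool) incubate with the reagents for 2 hours at ambient room temperature.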
An asterisk follows results filed as active; ? = inconclusive; [ ] = remark or other dose. % is scaled to controls: 0 for no effect and ±100 for the full control effect; potency is read from the fitted curve at half-maximal effect. Some of the compounds tested, so the mix of outcomes need not match the whole.

COC(C(=O)NCc1ccccc1C)c1ccccc1 (stereo not drawn)
  VDR inh = 5%

Cc1ccc(NC(=O)/C(=C/c2ccc([N+](=O)[O-])cc2)NC(=O)c2ccccc2)cc1
  VDR inh = -1%

CCOC(=O)c1[nH]c2ccc(C)cc2c1N
  VDR inh = -5%

Cc1cc(OCC(=O)Nc2cc(-c3nc4ccccc4[nH]3)ccc2C)ccc1Cl
  VDR inh = 32%[activator]

CCC(=O)OCC(=O)c1cc(C)n(-c2ccc(Br)cc2)c1C
  VDR inh = 2%

CCOc1ccc2nc(N3CCCC(C(=O)NCCc4ccc(OCC)c(OCC)c4)C3)sc2c1 (stereo not drawn)
  VDR inh = 1%

CCC(CC)C(=O)NCCc1cc2ccc(C)cc2[nH]c1=O
  VDR inh = -4%

COc1ccc(CCNC(=O)CCCOc2cccc(C)c2C)cc1OC
  VDR inh = -9%

Cc1cc(=O)[nH]c(/N=C(\N)Nc2ccc(SC(F)F)cc2)n1
  VDR inh = 10%

Cc1cc(C)c2sc(N(CCCN(C)C)C(=O)c3ccc(Br)s3)nc2c1
  VDR inh = 33%[activator]

O=C(NCCN1CCOCC1)c1cc(Sc2cccc(Cl)c2)nc2ccccc12
  VDR inh = 11%

Cc1ccc(C)c(NC(=O)CSc2nnc(-c3ccccc3)o2)c1
  VDR inh = -17%

COC(=O)c1ccc(COc2ccc(/C=N/Nc3nc(C)cc(=O)[nH]3)cc2)cc1
  VDR inh = -8%

CCOC(=O)c1cc(C(C)(C)C)oc1CNC(=O)c1c(C)oc2c1CCCC2
  VDR inh = -6%

CC(=O)Nc1ccc(S(=O)(=O)NCc2nc(-c3ccccc3Cl)no2)cc1
  VDR inh = -12%

Cc1c(C(=O)OCC(=O)c2c(N)n(CC(C)C)c(=O)n(C)c2=O)oc2ccccc12
  VDR inh = -15%

CCCCS(=O)(=O)c1sc2nc3c(cc2c1N)CCCC3
  VDR inh = -19%

Cc1ccc(C(=S)NCS(=O)(=O)c2ccc(C)cc2)cc1
  VDR inh = ?

Cc1ccc2[nH]cc(CCNC(=O)c3ccco3)c2c1
  VDR inh = -2%

CCOC(=O)c1c(C)oc2ncnc(N3CCN(c4ccc(C)cc4C)CC3)c12
  VDR inh = -24%

COc1ccccc1C(=O)N/C(=C\c1cn(C)c2ccccc12)C(=O)N1CCCC1
  VDR inh = -8%

CCOc1ccc(NC(=O)CN(C)C(=O)c2cn(-c3ccc(C)cc3)nc2-c2cccc(OC)c2)cc1OCC
  VDR inh = 5%

O=C1CCc2cc(S(=O)(=O)Nc3ccccc3)cc3c2N1CC3
  VDR inh = -10%

CC(C)(C)OC(=O)N1CCC[C@H]1C(=O)Nc1ccc(S(=O)(=O)C(F)F)cc1
  VDR inh = 2%

c1ccc(C(c2ccccc2)c2noc(CN3CCC(c4ccncc4)CC3)n2)cc1
  VDR inh = 8%

CCOc1ccc(/C(O)=C2/C(=O)C(=O)N(CC3CCCO3)C2c2cccs2)cc1 (stereo not drawn)
  VDR inh = -8%

O=C(Nc1ccc(Cc2ccncc2)cc1)c1ccc(S(=O)(=O)N2CCCC2)cc1
  VDR inh = -4%

CC12CCC(=O)C=C1CCC1C2CCC2(C)C(c3csc(N)n3)CCC12 (stereo not drawn)
  VDR inh = -6%

Cc1nc(-c2ccccc2)cc(N2CCCC2)n1
  VDR inh = 4%

Cc1ccc(C(=O)OC(C)C(=O)c2cc(C)c(C)cc2C)o1 (stereo not drawn)
  VDR inh = 14%

O=[N+]([O-])c1ccc(N/N=C/c2ccc(O)c(O)c2O)c(S(=O)(=O)N2CCOCC2)c1
  VDR inh = ?

O=C(c1ccc(Br)cc1)c1cc(-c2ccccn2)c(N2CCOCC2)s1
  VDR inh = -7%

CCn1c(COc2ccccc2OC)nc2ccccc21
  VDR inh = -9%

COc1cc2c(cc1OC)C(c1cc(Br)c(OC)c(OC)c1)CC(=O)N2 (stereo not drawn)
  VDR inh = -5%

COc1ccc(/C=N/Nc2nc(N3CCCC3)nc(N3CCCC3)n2)cc1
  VDR inh = -19%

CNC(=O)c1nn(-c2ccc(Cl)cc2)ccc1=O
  VDR inh = 4%

COc1ccc(N2CCN(C3CC(=O)N(Cc4ccccc4)C3=O)CC2)cc1 (stereo not drawn)
  VDR inh = 4%

CC(=O)Nc1ccc(OCc2cccc3ccccc23)cc1
  VDR inh = -6%

COc1ccc(-n2cc(C(=O)c3ccc4ccccc4c3O)cn2)cc1
  VDR inh = -3%

CCOC(=O)c1cnc(-n2nc(C)cc2C)nc1N(CC)CC
  VDR inh = -18%

CCN(CC)C(=O)C1CCCN(C(=O)c2cc(COc3cccc(OC)c3)on2)C1 (stereo not drawn)
  VDR inh = -2%

CS(=O)(=O)c1ccc2c(c1)sc1nc(=O)c(/C=C3/C=CC(=O)C(O)=C3)c(N)n12
  VDR inh = 19%

Cc1nn(C)c(C)c1S(=O)(=O)N1CCC(CO)(CC2CCCCO2)CC1 (stereo not drawn)
  VDR inh = 4%

Cc1cccc(NC(=O)c2nc(S(C)(=O)=O)ncc2Cl)c1
  VDR inh = ?

COc1ccc(CN(CC(=O)NCc2ccc(F)cc2)C(=O)CCC(=O)Nc2nccs2)cc1
  VDR inh = 9%

Cc1ccc(/C=N/n2nnnc2N)o1
  VDR inh = 6%

CCN(Cc1ccccc1)C(=O)c1cn(-c2cccc(OC)c2)c(=O)c2ccccc12
  VDR inh = -8%

CCCC(C)NC(=O)c1cc(S(=O)(=O)N2CCCCCC2)ccc1OC (stereo not drawn)
  VDR inh = -7%

COC(=O)NC(CCc1ccccc1)C(C(C)=O)C(=O)OC (stereo not drawn)
  VDR inh = -5%

Cc1cc(C)c(NC(=O)CSc2n[nH]c(-c3ccccc3Cl)n2)c(C)c1
  VDR inh = 15%

COc1ccccc1CCNC(=O)CCCn1c(=O)c2cccn2c2cccnc21
  VDR inh = 4%

COc1ccc(C(=O)N2CCC3(CC2)CN(Cc2ccc(C#N)cc2)C3)cc1
  VDR inh = -8%

O=C(Nc1ccccc1-c1nc2ccccc2s1)c1cccnc1Cl
  VDR inh = 4%

C/C(=N\NC(=O)CSc1nc(C)[nH]c1[N+](=O)[O-])c1ccc(F)cc1
  VDR inh = 9%

CC(=O)c1ccccc1NC(=O)COC(=O)c1c(C)nn(-c2ccccc2)c1C
  VDR inh = -12%

CCOc1ccc(Nc2c(S(=O)(=O)c3ccc(Cl)cc3)cnc3ccc(OC)cc23)cc1
  VDR inh = -17%

COc1cc(C2NC(=O)c3ccccc3O2)ccc1OC(C)C (stereo not drawn)
  VDR inh = ?

CN1C(=O)N(c2ccccc2)C(Nc2nncs2)C1(C)C (stereo not drawn)
  VDR inh = 9%

CC1(C)OC(C)(C)/C(=C\c2ccc(OCC(N)=O)cc2)C1=O
  VDR inh = -13%

CCOc1ccccc1NC(=O)NC1CCCCCCC1
  VDR inh = -6%

CSc1nc2[nH]ncc2c(=O)n1-c1ccccc1
  VDR inh = 4%

O=C(NN=C1CCCC1)c1ccccc1OCc1ccc(Cl)cc1
  VDR inh = -1%

O=C(OCC#Cc1c(COC(=O)c2ccccc2)nnn1Cc1ccccc1)c1ccccc1
  VDR inh = -10%

CCCCN(CCCC)S(=O)(=O)c1ccc(NS(=O)(=O)c2ccc(NC(C)=O)cc2)cc1
  VDR inh = 3%

O=C1c2ccccc2-c2onc3c(Br)cc(NC4CCCCC4)c1c23
  VDR inh = -19%

CC(C)=CCc1c(O)cc2oc(C)cc(=O)c2c1O
  VDR inh = 1%

Cc1ccc(S(=O)(=O)NC(=O)Nc2cc(C)ccc2F)cc1
  VDR inh = 17%

C[C@H]1CN([C@@H](C)CO)C(=O)c2cccc(NC(=O)c3cnccn3)c2O[C@@H]1CN(C)S(=O)(=O)c1ccc(F)cc1
  VDR inh = -6%

COc1cc(/C=N/NC(=O)CNC(=O)c2ccc3c(c2)OCCO3)ccc1O
  VDR inh = -12%

Nc1nc(SCC(=O)Nc2cc(Cl)c(Cl)cc2Cl)n[nH]1
  VDR inh = -5%

COc1ccc(S(=O)(=O)N2CCOc3ccccc32)cc1
  VDR inh = 35%[activator]

COC(=O)c1cc2occc2n1CC(=O)Nc1ccc(OC)c(OC)c1OC
  VDR inh = 1%

C=C(C)[C@@H]1CC=C(C(=O)O)CC1
  VDR inh = -6%

O=C(Cn1cc(SCc2ccccc2Cl)c2ccccc21)N1CCCCCC1
  VDR inh = 14%

COC(=O)c1cccc(Nc2c(-c3ccc(O)cc3)nc3nc[nH]n23)c1
  VDR inh = 3%

Five structures from above, ordered by SMILES length, ascending.
CC(C)=CCc1c(O)cc2oc(C)cc(=O)c2c1O
  VDR inh = 1%

COc1ccc(S(=O)(=O)N2CCOc3ccccc32)cc1
  VDR inh = 35%[activator]

O=C1c2ccccc2-c2onc3c(Br)cc(NC4CCCCC4)c1c23
  VDR inh = -19%

COC(=O)c1cccc(Nc2c(-c3ccc(O)cc3)nc3nc[nH]n23)c1
  VDR inh = 3%

C[C@H]1CN([C@@H](C)CO)C(=O)c2cccc(NC(=O)c3cnccn3)c2O[C@@H]1CN(C)S(=O)(=O)c1ccc(F)cc1
  VDR inh = -6%

(cont.)
Cc1c(-n2c(SCC(C)C)nc3ccccc3c2=O)c(=O)n(-c2ccccc2)n1C
  VDR inh = 9%

CCc1cc(=O)oc2cc(C)cc(OCC(=O)N3CCC(C(=O)NC(C)C)(c4ccccc4)CC3)c12
  VDR inh = 4%

CCOc1ccc(NS(=O)(=O)c2ccc(NC(=S)NC(=O)CC(C)C)cc2)cc1
  VDR inh = 3%

COc1ccc(NC(=S)NCc2ccc3c(c2)OCO3)cc1
  VDR inh = -11%

CCOC(=O)C1CCCN(c2cc(C)nc3c(-c4ccccc4OC)c(C)nn23)C1 (stereo not drawn)
  VDR inh = 12%

CCN1CCN(c2cc(N3CCN(C(=O)c4ccco4)CC3)c3c4c(onc24)-c2ccccc2C3=O)CC1
  VDR inh = -5%

C/C(=N\NC(=O)c1cc2c(s1)CCC(C)C2)c1ccncc1 (stereo not drawn)
  VDR inh = 11%

COc1nnc(-c2ccc(N3CCCCC3)c(NC(C)=O)c2)c2ccccc12
  VDR inh = 0%

Nc1nonc1-n1nnc(C(=O)N/N=C/c2ccncc2)c1-c1ccccc1
  VDR inh = -21%

Cc1cc(NC(=O)C2C3C(=O)N(CC4CCCO4)C(C(=O)NC(C)(C)C)C34C=CC2(C)O4)no1 (stereo not drawn)
  VDR inh = 7%

CC12CCC(=O)N1C(C(=O)Nc1cccc3ccccc13)CS2 (stereo not drawn)
  VDR inh = -22%

Cc1ccc(C)c(NC(=O)CCNS(=O)(=O)c2ccc3c(c2)CCCC(=O)N3)c1
  VDR inh = 12%

CCOC(=O)C1C(=O)CC(C)(O)C(C(=O)OCC)C1c1ccc(N(CC)CC)cc1 (stereo not drawn)
  VDR inh = -4%

COc1ccccc1-n1cnc2cc(NCc3cccs3)ccc21
  VDR inh = -14%

OC[C@@H]1CCCN1Cc1nc(-c2cccs2)no1
  VDR inh = -7%

O=C(CSc1ccc2nnc(-c3ccncc3)n2n1)Nc1ccccc1F
  VDR inh = -15%

O=C(Nc1ncn[nH]1)c1ccccc1O
  VDR inh = 6%

CC(C)CN(C(=O)COC(=O)C12CC3CC(CC(Cl)(C3)C1)C2)c1c(N)n(Cc2ccccc2)c(=O)[nH]c1=O
  VDR inh = 3%

COc1ccc(C(=O)N/N=C/c2sc3ccccc3c2O)cc1
  VDR inh = -20%

Cc1ccc(N2C(=O)CSC2=S)cc1C
  VDR inh = 7%

COc1ccc(CN2C(=O)C(C)Nc3ncnc(N4CCN(c5ccccc5)CC4)c32)cc1 (stereo not drawn)
  VDR inh = -4%

O=C(NCC1CCCCC1)C1(CC2CC(c3ccc(Cl)cc3)=NO2)CCNCC1 (stereo not drawn)
  VDR inh = -9%

O=C(NC1CCCCC1)C(c1ccccc1)N1CCCC1 (stereo not drawn)
  VDR inh = -5%

CCc1ccc(N2CC(C(=O)OCC(=O)N(CC)c3c(N)n(Cc4ccccc4)c(=O)[nH]c3=O)CC2=O)cc1 (stereo not drawn)
  VDR inh = 7%

O=C(O)CC(CC(=O)N1CCN(C(=O)c2ccco2)CC1)c1ccccc1 (stereo not drawn)
  VDR inh = -6%

N#CC1=C(N)Oc2cc(O)ccc2C1c1ccccc1 (stereo not drawn)
  VDR inh = 14%

CCN(CC)S(=O)(=O)c1cc(NC(=O)CN2CCN(c3ccccn3)CC2)ccc1C
  VDR inh = -22%

CCOc1ccc(NS(=O)(=O)c2ccc3[nH]cc(C(=O)NCc4ccco4)c(=O)c3c2)cc1
  VDR inh = 2%

COc1ccc(N2CCN(S(=O)(=O)c3ccc4c(c3)CCCC4)CC2)c([N+](=O)[O-])c1
  VDR inh = -10%

COc1cc(NC(=O)c2cccc3c2C(=O)N(C2CCCCC2)C3)cc(OC)c1
  VDR inh = -6%

O=C(CSc1nnc(NC(=O)C2CCC2)s1)Nc1ccccc1Br
  VDR inh = -11%

CCOC(=O)c1c[nH]c2c(Cl)c(Cl)ccc2c1=O
  VDR inh = -13%

O=C(NCCCc1ccncc1)C1CCC(=O)N(Cc2cccc(F)c2)C1 (stereo not drawn)
  VDR inh = ?

CCOc1ccc(N=Cc2c(C)[nH]n(-c3nc4ccccc4[nH]3)c2=O)cc1
  VDR inh = -11%

COc1ccc(N2CCN(C(=O)COc3cccc4ccccc34)CC2)cc1
  VDR inh = -10%

CC(=O)c1ccc(OCc2ccccc2)c(C)c1O
  VDR inh = 16%

CC(=O)Nc1ccc(Nc2ccc(N3C(=O)CCCC3=O)cc2[N+](=O)[O-])cc1
  VDR inh = -14%

Cc1c(Cl)cccc1NC(=O)C(=O)NCCc1csc(-c2ccc(C(F)(F)F)cc2)n1
  VDR inh = 8%

CC(=O)Nc1ccc(Nc2c([N+](=O)[O-])cc(S(C)(=O)=O)cc2[N+](=O)[O-])cc1
  VDR inh = -2%

CCc1cccc2c(C(=O)CN3C(=O)N(C)C4(CCCCC4)C3=O)c[nH]c12
  VDR inh = -7%

COC(=O)CNC(=O)CSc1nc2sc(-c3ccccc3)cc2c(=O)n1-c1ccccc1
  VDR inh = 8%

Oc1ccc(C[C@H]2CNC(=S)N2CC2CCCN2C[C@H](Cc2ccc(O)cc2)N2C[C@H](Cc3ccccc3)N(CCc3ccccc3)C2=S)cc1 (stereo partly drawn)
  VDR inh = -9%
